RN4220 kill: growth inhibition of S. aureus RN4220, primary screen, OD600; inhibition, % (no concentration beside the values); hit rate 0.33% among 330,000; 16 h; AID 1259311, 2017;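 active means z-score of -3 or lower and OD600 up to 0.18 on both plates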;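 further: plate controls were untreated cells for no effect and reference antibiotic for full effect; stock transfer was 100 nL into about 80 µL; one replicate is shown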
Mtb hypoxia rep: PubChem AID 1159583 | M. tuberculosis hypoxia-regulated fluorescent reporter, fluorescence | fluorescence inhibition, % (test concentration not listed) | hit rate 0.1% among 300,000;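 active means 35 to 45% if threefold the growth effect, above 45% if 1.5-fold the growth effect; inactive means the rest, general growth blockers included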;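 further: wells of about 50 µL received 100 nL stock; 0% = vehicle wells and 100% = reference inhibitor wells; whole bacteria with a GFP reporter of the hypoxia response; strong numbers were not always called active; many hits fall short of the cut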
Autofluor counter: flagged as autofluorescent in microsphere protease counterscreen; fluorescence intensity (no concentration beside the values); compound autofluorescence counterscreen, microsphere flow cytometry; stronger effect = higher value; hit rate 3.1% among 360,000;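 active means at least 3 SD above the mean of all compounds, about 16000 in these data; inconclusive means too few beads counted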;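 further: 100 nL of 1 mM stock went into each well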
Sa ugtP lethal: growth inhibition of ugtP-null S. aureus, primary screen, RN4220 ugtP deletion, OD600; 16 h; some inactives read as strong as hits; growth inhibition, % (no concentration beside the values); hit rate 0.54% among 330,000; AID 1259309, 2017;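 active means z-score under -3 and OD600 up to 0.15 on both plates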;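 further: plate controls were untreated wells for no effect and antibiotic for full effect; wells of about 80 µL received 100 nL stock; the first replicate is given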
PrP UTR inh: inhibition of PrP 5' UTR reporter expression | inhibition, % (no concentration beside the values) | hit rate 0.35% among 340,000 | cell-based PrP 5' UTR mRNA reporter, plate reader;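 active means every replicate at 50% or more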;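 further: 0 = median of the neutral control wells; tested in H4 reporter cells; numbers are from one replicate; inactives centre near -14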
BJeLR viability: MLPCN primary cell-based screen for lethality selective to Ras in HRASV12 cells | BJeLR (HRASV12) viability, CellTiter-Glo ATP luminescence, 48 h; reference of the scale not given here | inhibition, % (test concentration not listed) | hit rate 0.17% among 300,000 | AID 1554, 2009;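 active means replicate mean above 50%; inconclusive means above 50% but judged a plate artefact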;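 further: 50 nL library stock added to about 25 µL; numbers are from one replicate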
Mtb hypoxia rep growth: second read-out of Mtb hypoxia rep, no call of its own (marks repeat the call); growth inhibition, %; measured here: M. tuberculosis growth (absorbance);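 0% = vehicle and 100% = reference antibiotic; read after six days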
* = called active by the depositor; ? = inconclusive; . = no result given.

SMILES	RN4220 kill	Mtb hypoxia rep	Mtb hypoxia rep growth	Autofluor counter	Sa ugtP lethal	PrP UTR inh	BJeLR viability
COc1ccc(NC(=O)CC2C(=O)N(c3cccc(C)c3)C(=O)N2C2CCCCC2)cc1 (stereo unspecified)	2.2	2	4	9920	9	-27	-5
CS(=O)(=O)Nc1ccc(S(=O)(=O)NC2CCCCC2)cc1	2.6	-5	-3	4575	1	-13	1
COc1ccc(-c2cn(-c3ccc(C)cc3C)c(=S)[nH]2)cc1OC	3.4	4	-3	2925	3	-14	-5
COc1cc2c(cc1OC)C(=O)Cc1ccc3c(c1CN(C)CC2)OCO3	-2.8	.	.	5809	-3	-24	8
CCOc1ccc(CN2CCNC(=O)C2CC(=O)NCCc2cnccn2)cc1 (stereo unspecified)	-0.3	3	2	5698	1	-8	-1
CCOC(=O)/C(=C\Nc1ccc(OC(F)(F)F)cc1)Sc1ncc(C(F)(F)F)cc1Cl	-1.1	.	.	2010	11	-25	-3
COc1ccc(NS(=O)(=O)c2cc(NS(=O)(=O)c3cccs3)ccc2C)cc1	8.8	-1	-4	4504	11	-16	.
CC(C)CCNC(=O)c1onc(CSc2ccccn2)c1C(=O)NCCC(C)C	-0.6	5	8	3796	-32	-11	2
COc1cccc(C2Nc3ccc4ccccc4c3C3=C2C(=O)CC(C)(C)C3)c1OCC(=O)O (stereo unspecified)	3.3	-12	-17	3873	7	-6	1
CC1SC(C)C(=O)N(CC(=O)NCc2ccc(F)cc2)C1=O (stereo unspecified)	-1.7	-5	-17	2729	0	16	1
Cn1cc(CN2CCC[C@H]2CO)c(-c2cccc(Cl)c2)n1	2.5	-1	-5	4578	3	-27	10
Cc1c(NC(C)c2cc(Cl)ccc2O)c(=O)n(-c2ccccc2)n1C (stereo unspecified)	5.1	4	-4	2318	4	-11	-5
CCCCN1c2ccccc2N(CCCO)c2cc(C)nnc21	-0.1	13	12	4655	3	-5	-3
O=C(NCc1ccccc1CN1CCCC1)C1CCN(C(=O)c2ccc(F)cc2)CC1	2.7	3	6	?	1	-5	.
CCOC(=O)c1c(C)[nH]c(C)c1S(=O)(=O)NCC(=O)Nc1ccccn1	-0.1	-14	-3	5324	2	11	4
COC(=O)c1c(NS(=O)(=O)c2cccs2)sc2c1CCCC2	11	5	4	25083*	-11	-17	5
CCOc1ccc(NC(=O)CN(C)C(=O)c2cc(S(=O)(=O)N3CCCCC3)ccc2C)cc1OCC	.	.	.	5783	.	-3	-7
Cc1cc(C(=O)NN=Cc2cccnc2)c2ccccc2n1	3.9	11	-3	.	1	.	.
Cc1onc(-c2c(Cl)cccc2Cl)c1C(=O)c1c[nH]c(C(=O)NCC2CCCO2)c1 (stereo unspecified)	6.0	14	9	3717	2	-9	6
C=CCN(c1ccccc1)S(=O)(=O)c1cccc(C(=O)NCc2ccncc2)c1	7.7	-1	-4	?	4	-7	-8
COc1ccc(NC(=O)NC2(C(=O)N3CCCCCC3)CCCCC2)cc1	9.5	.	.	3782	4	-8	-6
CC(C)c1ccccc1NC(=O)Nc1ccc2c(c1)OCO2	-0.1	11	5	6081	7	-12	1
CC(C)C(=O)N1CCN(c2ccccc2N)CC1	-9.0	6	18	5443	-3	-17	8
CCN1C(=O)C(CC(=O)Nc2cccc(C(C)=O)c2)S/C1=N\c1ccccn1 (stereo unspecified)	.	.	.	2039	.	-7	-2
N#Cc1ccc(NC(=O)C2CC(c3ccc(F)cc3)=NO2)cc1 (stereo unspecified)	-0.2	-6	8	22651*	-12	-18	-2
O=C(NC1CCN(C(=O)N2CCOCC2)CC1)c1ccccc1	6.5	2	5	3821	0	-22	3
COc1ccccc1N1CCSC1C(N)=O (stereo unspecified)	0.6	.	.	4320	1	-22	-3
Cc1ccc(S(=O)(=O)N(C)CC(=O)Nc2ncccc2C)cc1	6.1	9	0	4221	11	-31	-4
N#Cc1ccc(OCc2cccc(S(=O)(=O)N3CCOCC3)c2)cc1	1.8	4	7	5598	4	-10	-1
Oc1ccccc1-c1nc2ccccc2nc1-c1ccccc1	4.6	-10	8	5138	12	-19	20
CCc1cccc(Nc2cc(C)nc3ncnn23)c1	4.2	.	.	4537	0	-13	-6
O=C(O)CCC(=O)Nc1ccc(S(=O)(=O)Nc2nccs2)cc1	4.4	-2	-2	5555	4	-82	-7
O=C(COc1ccccc1)Nc1ncccn1	2.0	5	13	10202	4	-32	2
O=[N+]([O-])c1ccc(Nc2ccc3ccccc3c2)nc1	-5.0	1	4	4228	-33	-44	9
N=c1ccn(Cc2cccc(F)c2)cc1	1.4	-1	-6	6351	2	.	-11
Nc1ncc(Br)cc1Br	9.8	2	0	1968	3	-5	3
N#Cc1c(Nc2ccccc2Cl)s[nH]c1=O	14	14	7	6099	-2	-14	3
COc1cc(-c2c(-c3ccc4c(c3)OCO4)noc2C)ccc1F	10	12	1	3776	6	-28	-5
COc1cc(C2OCC3C(c4cc(OC)c(OC5OC(CO)C(O)C(O)C5O)c(OC)c4)OCC23)cc(OC)c1OC1OC(CO)C(O)C(O)C1O (stereo unspecified)	3.5	8	3	.	-1	.	.
C#CCN(C(=O)Nc1ccccc1)c1ccccc1	5.2	5	1	1955	1	-8	3
Cc1ccccc1CN1C(=O)CS/C1=N/N=C/c1ccco1	.	.	.	3605	.	-13	7
COc1cccc(Nc2ncnc3sc(C)cc23)c1	5.0	7	4	5593	-4	-51	14
Cc1ccc(C(=O)N/C(=C\c2cccnc2)C(=O)N2CCCC2)cc1	-0.5	-5	-6	3021	6	7	-7
CNc1nc(=S)[nH]c2ccccc12	4.2	.	.	5439	1	-43	5
COc1ccc(CNC(=O)c2ccc(NS(=O)(=O)c3ccc4[nH]c(=O)[nH]c4c3)cc2)cc1OC	2.5	3	9	6298	0	-1	.
O=C(Nc1cc(Cl)ccc1-n1cncn1)c1cc(F)cc(F)c1	2.3	10	0	6206	0	-19	-4
CC(=O)Oc1cc2c(C(=O)NCCCN3CCOCC3)c(C)oc2c2ccccc12	-1.6	.	.	2592	3	-10	3
CC(=NNC(=O)C(C)SC(C)C(=O)NN=C(C)c1cccnc1)c1cccnc1 (stereo unspecified)	1.5	15	9	4274	5	-26	.
CCCn1c(SCC(=O)Nc2cc(Cl)ccc2OC)nc(O)cc1=O	1.8	-4	4	3857	-6	-4	.
CCc1nn(-c2ccccc2)c(N)c1C#N	-2.4	-1	3	2672	-4	-2	-8

Reprinted at random: 7 entries already listed.
SMILES	RN4220 kill	Mtb hypoxia rep	Mtb hypoxia rep growth	Autofluor counter	Sa ugtP lethal	PrP UTR inh	BJeLR viability
Nc1ncc(Br)cc1Br	9.8	2	0	1968	3	-5	3
COc1ccc(CNC(=O)c2ccc(NS(=O)(=O)c3ccc4[nH]c(=O)[nH]c4c3)cc2)cc1OC	2.5	3	9	6298	0	-1	.
O=C(O)CCC(=O)Nc1ccc(S(=O)(=O)Nc2nccs2)cc1	4.4	-2	-2	5555	4	-82	-7
CCOC(=O)/C(=C\Nc1ccc(OC(F)(F)F)cc1)Sc1ncc(C(F)(F)F)cc1Cl	-1.1	.	.	2010	11	-25	-3
CC1SC(C)C(=O)N(CC(=O)NCc2ccc(F)cc2)C1=O (stereo unspecified)	-1.7	-5	-17	2729	0	16	1
CCOC(=O)c1c(C)[nH]c(C)c1S(=O)(=O)NCC(=O)Nc1ccccn1	-0.1	-14	-3	5324	2	11	4
CC(C)CCNC(=O)c1onc(CSc2ccccn2)c1C(=O)NCCC(C)C	-0.6	5	8	3796	-32	-11	2

Continuation:
SMILES	RN4220 kill	Mtb hypoxia rep	Mtb hypoxia rep growth	Autofluor counter	Sa ugtP lethal	PrP UTR inh	BJeLR viability
Cc1ccc(NC(=O)C(C)N2C(=O)c3ccccc3C2=O)cc1 (stereo unspecified)	1.7	-3	8	2821	3	-12	-2
NC(=O)CN(c1ccccc1)C1SC(=O)N(Cc2ccccc2)C1=O (stereo unspecified)	5.0	-4	16	9050	3	-19	-8
O=C(NCc1ccccc1)c1cccn(Cc2cccc(Cl)c2)c1=O	3.7	-4	9	3907	6	-11	-14
Cc1csc(=N)n1CC(=O)N1CCc2ccccc21	-1.4	.	.	4602	5	2	4
CCCCCn1c(N)c(C(=O)NCCN2CCOCC2)c2nc3ccccc3nc21	-3.4	.	.	2670	-12	-15	-4
CCCC1CCc2c(c3ccccc3[nH]c2=O)O1 (stereo unspecified)	9.8	16	6	2970	-3	-5	0
O=C(NC(C(=O)c1ccccc1)N1CCCCCC1)c1ccco1 (stereo unspecified)	7.3	6	0	2552	10	-24	-6
CCN(C(=O)COC(=O)/C=C/c1ccccc1[N+](=O)[O-])C1CCS(=O)(=O)C1 (stereo unspecified)	11	-4	6	4276	4	-23	-16
O=C(CCNS(=O)(=O)c1ccc2c(c1)CCC(=O)N2)Nc1ccc(F)c(F)c1	1.6	-1	4	6441	3	2	4
CCOC(=O)c1cccc(NC(=O)/C(=C\c2ccccc2)NC(=O)c2ccccc2Cl)c1	5.7	14	6	9134	-5	-13	8
CCn1cc(C(=O)NCc2ccco2)c(=O)c2cc(S(=O)(=O)N3CC(C)CC(C)C3)ccc21 (stereo unspecified)	4.5	6	2	19725*	18	-20	88*
CCCCCCCCCC(=O)NC(CN1CCOCC1)C(O)c1ccccc1 (stereo unspecified)	8.5	-1	6	.	-1	.	.
COc1cccc(Cn2nc3c4cc(F)ccc4n(Cc4ccc(F)cc4)cc-3c2=O)c1	-2.2	1	-1	3605	15	-16	-1
CC1(c2ccc(Cl)cc2)NC(=O)N(CC(=O)NCc2cccs2)C1=O (stereo unspecified)	2.1	10	-6	2104	7	-9	-5
CCC(=O)N1CCc2cc(S(=O)(=O)CCC(=O)NCc3ccc(OC)cc3)ccc21	-0.1	-2	1	4795	10	3	-15
CN(C)c1nc(OCc2ccccc2)c2ncc(=O)[nH]c2n1	-0.1	-11	4	6564	-6	-11	-10
CCC(COC)NC(=O)c1ccc(OC)c(OC2CCN(C(C)=O)CC2)c1 (stereo unspecified)	6.0	-10	4	4031	0	-23	-6
N#Cc1cn(CC(=O)N2CCc3ccccc3C2)c2ccccc12	4.2	2	-1	2931	3	-13	-6
O=C(c1ccccc1)c1ccc(C(=O)O)c(C(=O)O)c1	4.5	3	-7	4930	0	-17	.
CC[C@H](C)[C@H](NC(N)=O)C(=O)Nc1ccc(S(=O)(=O)NC(C)C)cc1	-5.1	-14	4	4644	-8	2	6
O=C(NN=C1CCCC1)c1ccccc1O	4.4	9	2	3787	8	-38	-16
Cn1nnnc1SCC(=O)NCc1cccs1	4.4	8	12	4009	6	-22	6
CCOC(=O)c1c(NC(=O)COC(=O)CCNS(=O)(=O)c2ccccc2)sc(C(=O)NC)c1C	3.0	4	-1	?	0	13	.
O=C(Nc1ccccc1)Nc1ccccc1C(=O)NCC1CC1	-4.2	-3	-2	.	-6	-22	1
COc1ccc(CNC(=O)c2ccc3c(c2)NC(=O)C(C)S3)cc1 (stereo unspecified)	1.6	-2	10	5821	9	-67	0
Brc1cc(Cc2nnc(-c3ccccc3)o2)c(Br)s1	7.1	.	.	3734	-1	-3	-6
CN(C(=O)COC(=O)C1CCN(S(=O)(=O)c2c(Cl)cccc2Cl)CC1)C1CCS(=O)(=O)C1 (stereo unspecified)	0.3	-3	12	?	-1	-10	-8
O=C(CSc1ccccc1C(=O)O)c1ccccc1	6.5	1	3	5036	4	-2	-6
COc1cccc(CNC(=O)c2ccc(C)c(S(=O)(=O)N3CCCCC3)c2)c1	3.7	8	2	?	1	-24	6
CNCCOc1ccccc1OC(C)C	5.3	-5	6	3531	4	4	-2
CC1CCN(CCCNC(=O)C2CCN(S(=O)(=O)N3CCC4(CC3)OCCO4)CC2)CC1	1.9	9	-1	4882	5	6	-1
CC1(C)CC(=O)C(C=NCCN2CCN(C(=O)Cc3ccccc3)CC2)=C(O)C1	2.8	5	6	12206	0	.	-11
Cc1ccc(S(=O)(=O)N2CCN(C(=O)c3cccs3)CC2)cc1C	5.8	-5	3	3949	18	-80	-2
COc1cc(Cc2nccc3cc(OC)c(OC)cc23)c(S(=O)(=O)O)cc1OC	1.8	10	-1	3324	5	-12	12
